# Screening data from PubChem.
# NPYLR7 agonist: activates Aedes aegypti NPYLR7 receptor. HEK293T NPYLR7/Galpha15, GCaMP6s calcium fluorescence. activation, % at 10 µM. actives 0.15% (n = 270,000). AID 1259423; in the data active = activation above about 40%;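 note: 0% = vehicle and 100% = reference agonist at the receptor; some compounds past the cut are filed as inactive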
# NPYLR7 agonist max-min: further read-out of NPYLR7 agonist, marked with its call; activation, %; measured here: Max-Min RFU normalised activation; some inactives read as strong as hits;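 span of the calcium signal over five minutes; 0% = vehicle and 100% = native peptide agonist; compound fluorescence can raise it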
# Starred values were filed as active, the others as inactive. A portion of the library. The share of hits here may be higher or lower than overall.
SMILES,NPYLR7 agonist,NPYLR7 agonist max-min
CC1(C)CC2CC(C)(CN2c2nc(N)c3c(N)nc4c(c3c2C#N)CC(=O)N4Cc2cccs2)C1 (configuration not stated),18,22
Cc1oc(C)c(S(=O)(=O)N2CCOCC2)c1C(=O)Nc1ccccc1C(F)(F)F,4,-1
COCc1ccc(C(=O)Nc2ccccc2F)cc1,2,1
COc1ccc(-c2nc3nc(-c4ccccc4OC)cc(C(=O)O)c3[nH]2)cc1,-1,-2
CC(=O)OC12CC3C(C1C(C)=NN2C(=O)C(=O)N1N=C(C)C2C4C(CC21OC(C)=O)C4(C)C)C3(C)C (configuration not stated),1,-2
CC(C)CNc1ncnc(-c2ccccc2)c1N,17,6
CC(C)Oc1cc(N2CCN(C3CCCC3)C(=O)C2)nc(N)n1,0,-3
CC(C)c1cc(C(C)C)n(C2CCN(C(=O)CCCNC(=O)OCc3ccccc3)CC2)n1,-7,-11
O=C(c1ccncc1)N1CCSc2ccc(C(F)(F)F)cc21,-3,-4
c1ccc(-c2ccn(-c3ccccc3)n2)cc1,2,1
CCC(C)N(Cc1c(-c2ccc(C)cc2)noc1N1CCCC1)C(=O)COC (configuration not stated),6,14
COc1ccc(N2C(=O)CSC2c2ccc(NC(=O)CCl)cc2)c(OC)c1 (configuration not stated),3,12
C#CCOCC(O)CN(Cc1ccc(F)cc1)Cc1cccn1C (configuration not stated),2,6
Cc1ccc(-c2[nH]ncc2CNCc2cc(C)n(C)n2)cc1C,1,-1
CC(=O)c1ccc(C(=O)N=c2sc3c(C)ccc(C)c3n2C)cc1,2,2
COc1ccc(-c2nc3ccc(C)cn3c2NC(=O)c2cccc(C(F)(F)F)c2)cc1,-4,1
O=C1C2C3C=CC(C3)C2C(=O)N1CCN1C(=O)C2C3C=CC(C3)C2C1=O (configuration not stated),15,6
Cc1ccc(N2C(=O)CSC2c2ccc(NC(=O)c3ccccc3Cl)cc2)cc1F (configuration not stated),-4,10
O=C(c1nc2sccn2c1CNCC1OCCc2ccccc21)N1CCCC1 (configuration not stated),-11,-16
CNS(=O)(=O)c1c(C)c(C)c(C)c(C)c1C,1,-1
O=C(NCCC1=CCCCC1)c1ccc(-c2ccc(F)c(F)c2)s1,12,6
COCCOC(=O)C1=C(C)NC2=C(C(=O)CCC2)C1c1coc2ccc(C)cc2c1=O (configuration not stated),-4,-13
O=C(C1CCC1)N1CCN(C2c3ccccc3CCc3ccccc32)CC1,5,2
CC(C(=O)Nc1ccc(N2CCCC2)cc1)N1C(=O)C2CC=CCC2C1=O (configuration not stated),16,6
COc1ccccc1-c1cc(C(=O)NC(C)CCc2ccccc2)nc2c(-c3ccccc3)c(C)nn12 (configuration not stated),19,15
COCCn1c(N2CCN(CCCc3ccccc3)CC2)nc2c1c(=O)[nH]c(=O)n2C,5,1
COC(=O)c1ccc2c(c1)sc(=NC(=O)c1nn(C)cc1C)n2C,1,7
CCOc1ccc(C(F)(F)F)cc1-n1cnnc1,-1,-5
COc1ccc(-n2ncc(Oc3ccc(Cl)c(C)c3)c(Nc3cccc(C(=O)NC4CC4)c3)c2=O)cc1,-13,-1
COCCn1c(=NC(=O)C2=COCCO2)sc2cc(OC)ccc21,6,2
COc1ccc(-n2sc3c(c2=S)-c2cc(OC)ccc2NC3(C)C)cc1,-1,-1
COC(=O)c1sccc1S(=O)(=O)Nc1ccc(F)cc1Cl,-7,18
COCCNC(=O)C1(C)CCN(C=C2N=C(c3c(C)noc3C)ON2)C1 (configuration not stated),14,4
Cc1cc(C(=O)CN2C(=O)C3(OCCO3)c3cc([N+](=O)[O-])ccc32)c(C)o1,3,0
Cc1ccc(C)c(S(=O)Cc2cc(F)cc3c2OCOC3)c1 (configuration not stated),2,4
Cc1ccc2[nH]c(=O)n3nc(C4CC4)nc3c2c1,-9,-6
Cc1ccccc1OCC(=O)NCCS(=O)(=O)N1CCN(c2ccccn2)CC1,-8,-9
CCc1ccccc1NC(=O)N(CCOC)Cc1ccc(OS(=O)(=O)CC)cc1,-8,-4
CC(C)(C)CC(C)(C)c1ccc(OCC(=O)Nc2nccs2)cc1,-1,1
NC(Cc1ccc(F)cc1)c1csc(Nc2cc(Oc3ccccc3)ncn2)n1 (configuration not stated),-5,-10

# Record cards (already shown). Order of screens: NPYLR7 agonist | NPYLR7 agonist max-min
# COC(=O)c1sccc1S(=O)(=O)Nc1ccc(F)cc1Cl across the screens: -7 | 18
# CCc1ccccc1NC(=O)N(CCOC)Cc1ccc(OS(=O)(=O)CC)cc1 across the screens: -8 | -4

# The results go on:
SMILES,NPYLR7 agonist,NPYLR7 agonist max-min
Cc1ccccc1CN1CCC(CN(Cc2cccnc2)C(=O)c2scnc2C)CC1,0,-4
CC(NC(=O)CN1C(=O)NC2(CCc3ccccc32)C1=O)C1CC1 (configuration not stated),11,3
Cc1ccc(-n2nnc3c(N4CCN(C(=O)CC5CCCC5)CC4)ncnc32)cc1,-14,-24
COc1ccc(-c2c3c(=O)n(CCO)ccc3nc3nc(C)nn23)cc1,-21,-24
O=C(NCc1ccccn1)c1cc(N2CCSCC2)nc2ccccc12,22,25
Cc1cccc(NC(=O)N2CCC(n3cc(-c4ccccn4)nn3)CC2)c1C,1,-1
CCOc1ccccc1-n1nnc(C(=O)Nc2ccc(C(C)=O)cc2)c1C,-2,-9
c1ccc(-c2nc(NC3CCCC3)c3ccccc3n2)cc1,5,2
CCC(C)N(CC(=O)N1CCc2sccc2C1c1ccccc1)C(=O)c1ccc(Cl)cc1 (configuration not stated),17,21
COc1ccc2c(c1)C(CO)=CC(C)(C)O2,2,9
CCc1cccc2c(C(CC(=O)NC3CCN(Cc4ccccc4)CC3)c3cccc(C(F)(F)F)c3)c[nH]c12 (configuration not stated),17,8
Cc1cccn2c(=O)c(C=C3SC(=S)N(CC4CCCO4)C3=O)c(N3CCCC3)nc12 (configuration not stated),0,-4
CCCCC(=O)Nc1c(-c2cccc(F)c2)nc2cc(C)ccn12,-4,3
CCOC(=O)C1C(=O)C=C(c2ccc(OC)c(OC)c2)CC1c1ccccc1 (configuration not stated),-2,1
Cc1ccc(NC(=O)CSc2nc3ccccc3[nH]2)c(C)c1,-6,-11
CCOC(=O)c1sc(NC(=NC)c2cccs2)cc1C,-1,1
Cc1nnc(SCCCNC(=O)c2c(C)nc3sccn23)s1,-4,-7
Cc1nc2sc3c(c2c(=N)n1N)CC(c1ccccc1)SC3c1ccccc1 (configuration not stated),8,37
CCOC(=O)c1sc(NC(=O)c2c(F)cccc2F)c(C(=O)OCC)c1C,-5,-6
Cc1sc(NC(=O)c2cc(-c3ccc(C(C)(C)C)cc3)nc3ccccc23)c(C(N)=O)c1C,-9,-11
CCOC(=O)c1c(NC(=O)COC(=O)C2(C)CC2(Cl)Cl)sc(C(C)=O)c1C (configuration not stated),23,28
CCCN1CC(NC2CCN(Cc3cccnc3)CC2)CC1=O (configuration not stated),-2,16
c1cncc(Cn2ccnc2-c2ccc(-n3ccnc3)cc2)c1,4,2
CS(=O)(=O)N1C[C@H](Oc2ccccn2)[C@H]2C[C@@H]1CC[C@H]2N1CCOCC1,23,28
CCN1CCC(N(C)C(=O)CCC(=O)Nc2cccc(C#N)c2)CC1,7,7
CCC(CC)C(=O)N(C)c1c(C)nc2c(OCc3cccc(Cl)c3)cccn12,5,-2
CN(Cc1ccn(-c2ccccc2)n1)CC1CCCC1,-2,-5
COc1cccc(OCc2nc(C(=O)NCC3CCCO3)cs2)c1 (configuration not stated),5,13
CC(=O)N1CCN(c2nc(-c3cccc(C(F)(F)F)c3)nc(C)c2Cc2ccccc2)CC1,18,13
C=CCN(CC(=O)N1CCc2sccc2C1c1ccc(Cl)cc1Cl)C(=O)c1ccc(OC)cc1OC (configuration not stated),-11,-7
COc1ccc(C(=O)N=Nc2c(O)n(CC(=O)Nc3cccc(C)c3)c3ccccc23)cc1,-6,-11
O=C(Nc1ccc(Oc2ccccc2F)cc1)C1CCCCN1C(=O)c1cnccn1 (configuration not stated),14,0
Cc1c(C(C)NC2CSCCSC2)cnn1-c1cccc(F)c1 (configuration not stated),2,-3
CN(CCC1CCOCC1)C(=O)C1CCC(=O)N(C2CCCCCC2)C1 (configuration not stated),17,9
CC(C)c1cc(C(=O)N2CCCC(CO)(CCc3ccccc3)C2)n[nH]1 (configuration not stated),-3,-2
Cc1ccc(S(=O)(=O)N2CCOCC2)c(C)c1N1CCc2cn[nH]c21,1,1
Cc1cc(OCCN(C)S(=O)(=O)c2c(C)noc2C)ccc1C(C)C,9,8
N#Cc1cccc(CNC(=O)C2=NN(c3ccccc3)C(C(N)=O)C2)c1 (configuration not stated),0,5
O=S1(=O)CCN(c2cc(NS(=O)(=O)c3ccc(Br)s3)ccc2F)CC1,-6,-7
Cc1ncc(C(=O)NCCOc2ccccc2F)c(C)n1,12,8
CCCNC(=O)C1(C)CCCN(Cc2csc(-c3ccccc3)n2)C1 (configuration not stated),-8,-7
COc1ccc2[nH]c3c(c2c1)CCN(C(=O)CC(C)CC(C)(C)C)C3COCc1ccccc1 (configuration not stated),6,-4
O=c1cc(CN2CCOCC2)[nH]c(=O)[nH]1,13,15
CC(C)c1nn(CC(=O)N2CCc3ccccc32)c(=O)c2c1cnn2-c1ccccc1,-3,-4
Cc1ccoc1C(=O)N(C)Cc1snnc1C,-1,-1
COc1cc(/C=C(\C#N)c2[nH]nc(N)c2C#N)ccc1O,-7,-14
Cc1ccccc1CN1CCN(C(=O)c2cn(C(C)C)cc3c(=O)n(-c4ccccc4)nc2-3)CC1,-4,-8
O=C1C(=Cc2ccc(-c3ccccc3)cc2)SC(=S)N1CCN1CCOCC1,14,9
CC(C)(C)NC(=O)N1CCC(C(NC(=O)C2CCCC2)C(=O)NCc2ccccc2)CC1 (configuration not stated),4,4
COc1ccc(C(=O)N2CCCC(OCc3ccc(Br)cc3)C2)cc1 (configuration not stated),-10,-6
Nc1nc(SCC(=O)NCc2ccc(F)cc2)[nH]c(=O)c1NC(=O)c1ccc(Cl)cc1,-8,-6
CN(Cc1ccc(F)cc1)C(=O)CNc1cc(Cl)ccc1C(N)=O,9,7
Nc1cc(-c2cccc(C(F)(F)F)c2)nn1-c1ccc(C(=O)Nc2ccccc2Nc2ccccc2)cc1,-9,-11
CCOC(=O)CSc1nnc(CSc2cc(C)nc(N3CCCC3)n2)o1,16,12
Cc1cc(C(=O)N(CCn2cccn2)c2nc3c(Cl)cccc3s2)no1,-24,-29
CCn1c(-c2ccncc2)nn(CN(C)Cc2cccc(Cl)c2Cl)c1=S,5,-2
Cn1c(=NC(=O)CNC(=O)OC(C)(C)C)sc2ccccc21,-4,-7
Cn1cc(C(=O)N2CCC(C(N)=O)CC2)c2[nH]c(=O)n(-c3ccc(Cl)cc3)c(=O)c21,1,0
CCOc1ccc(C(=O)N2CSCC2C(=O)NCc2nc(C)no2)cc1 (configuration not stated),-4,-6
Cc1nc(CNC(=O)c2cccc(C#CC(C)(C)O)c2)nc2c1CCCC2,7,5

# More structures follow.
SMILES,NPYLR7 agonist,NPYLR7 agonist max-min
Cc1cc(OCCNCC(C)O)cc(C(C)C)c1 (configuration not stated),8,6
CCc1nccc(CN(C)CC2COc3ccccc3O2)n1 (configuration not stated),0,0
N#Cc1c[nH]n2c(NC3CCCC3)c(-c3ccc(Cl)cc3)nc12,0,-3
CC(C)c1ncc2c(n1)CN(CC(=O)N1CCC(C(N)=O)CC1)CC2,5,4
O=C(CCc1ccco1)N1CCN(S(=O)(=O)c2cccc(Cl)c2Cl)CC1,10,3
CCCC(=O)Nn1cnc2c(cnn2C(C)(C)C)c1=O,2,0
CCCCn1c(=O)c2c(nc3n2CCN3Cc2ccco2)n(C)c1=O,17,10
C=CCN1C(=O)[C@@H]2CN(C(=O)CC(C)(C)CC(=O)O)CCN2C1=O,-7,-13

# Among those listed so far, 16 have an aryl methoxy group:
SMILES,NPYLR7 agonist,NPYLR7 agonist max-min
COc1ccc(-c2nc3nc(-c4ccccc4OC)cc(C(=O)O)c3[nH]2)cc1,-1,-2
COc1ccc(N2C(=O)CSC2c2ccc(NC(=O)CCl)cc2)c(OC)c1 (configuration not stated),3,12
COc1ccc(-c2nc3ccc(C)cn3c2NC(=O)c2cccc(C(F)(F)F)c2)cc1,-4,1
COc1ccccc1-c1cc(C(=O)NC(C)CCc2ccccc2)nc2c(-c3ccccc3)c(C)nn12 (configuration not stated),19,15
COc1ccc(-n2ncc(Oc3ccc(Cl)c(C)c3)c(Nc3cccc(C(=O)NC4CC4)c3)c2=O)cc1,-13,-1
COCCn1c(=NC(=O)C2=COCCO2)sc2cc(OC)ccc21,6,2
COc1ccc(-n2sc3c(c2=S)-c2cc(OC)ccc2NC3(C)C)cc1,-1,-1
COc1ccc(-c2c3c(=O)n(CCO)ccc3nc3nc(C)nn23)cc1,-21,-24
COc1ccc2c(c1)C(CO)=CC(C)(C)O2,2,9
CCOC(=O)C1C(=O)C=C(c2ccc(OC)c(OC)c2)CC1c1ccccc1 (configuration not stated),-2,1
COc1cccc(OCc2nc(C(=O)NCC3CCCO3)cs2)c1 (configuration not stated),5,13
C=CCN(CC(=O)N1CCc2sccc2C1c1ccc(Cl)cc1Cl)C(=O)c1ccc(OC)cc1OC (configuration not stated),-11,-7
COc1ccc(C(=O)N=Nc2c(O)n(CC(=O)Nc3cccc(C)c3)c3ccccc23)cc1,-6,-11
COc1ccc2[nH]c3c(c2c1)CCN(C(=O)CC(C)CC(C)(C)C)C3COCc1ccccc1 (configuration not stated),6,-4
COc1cc(/C=C(\C#N)c2[nH]nc(N)c2C#N)ccc1O,-7,-14
COc1ccc(C(=O)N2CCCC(OCc3ccc(Br)cc3)C2)cc1 (configuration not stated),-10,-6
